Env fusion inh: inhibitors of HIV Env-mediated cell fusion | HeLa-JRFL Env/CEM21 cell fusion, luciferase | inhibition, % at 12.3 µM | 1.1% of 360,000 active;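 active = mean replicate inhibition score of at least 50 and every replicate individually at or above 50; inconclusive = only one of the two criteria met; inactive = mean below 50 and not all replicates reaching 50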;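 also: 0% = plate neutral controls and 100% = maraviroc near 300 nM; one replicate is shown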
Yeast UUG start: alters start codon recognition fidelity in yeast; activity score, % at 18.7 µM; S. cerevisiae UUG-firefly luciferase reporter, luminescence/redox ratio; 0.13% of 350,000 active;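 active = replicate mean at a twofold rise or more, about +100% in these data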;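 also: firefly luciferase made from a UUG start codon reports start codon fidelity; reporter light over untreated wells divided by growth signal over untreated wells; some hits fall short of that in this replicate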
MT1-MMP act inh: MT1-MMP (human) activation inhibition | P50281 | HT1080 RFP-PRO-GFP cells, GFP/RFP ratio fluorescence, overnight; percent of plate control window, DMSO zero | GFP/RFP ratio change, % at 20 µM | 0.061% of 360,000 active | AID 651647;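 active = GFP/RFP ratio change of at least 30% with cell ATP level not reduced by more than half and red fluorescence within 50% of control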; also: strong numbers were not always called active
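Assay system: HT1080 cells carrying an RFP-PRO-GFP reporter | Dosing: Single dose of 20 µM compound, 1% DMSO final | Incubation: Cells overnight before dosing, compound overnight, 37 °C, 5% CO2 | Evaluation: GFP/RFP fluorescence ratio | Control set: DMSO and RFP-L50D-GFP cell wells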
PABP FP inh: blocks human PABP binding to poly(A) RNA | P11940 | fluorescence polarization | inhibition, % at 35 µM | 1% of 290,000 active | AID 2014;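 active = 50% or more with normal probe brightness, or confirmed in later tests; inconclusive = above 50% with abnormal brightness, or retests that disagree; inactive = below 50% or failed in later tests; about a fifth of its hits are not listed in these tables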;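 also: calls also rest on retests at 20 µM and on dose response follow-up; controls were probe without protein and protein plus probe with vehicle; some compounds called inactive have numbers as strong as hits; many hits fall short of the cut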
Target sequence (P11940 whole entry, looked up): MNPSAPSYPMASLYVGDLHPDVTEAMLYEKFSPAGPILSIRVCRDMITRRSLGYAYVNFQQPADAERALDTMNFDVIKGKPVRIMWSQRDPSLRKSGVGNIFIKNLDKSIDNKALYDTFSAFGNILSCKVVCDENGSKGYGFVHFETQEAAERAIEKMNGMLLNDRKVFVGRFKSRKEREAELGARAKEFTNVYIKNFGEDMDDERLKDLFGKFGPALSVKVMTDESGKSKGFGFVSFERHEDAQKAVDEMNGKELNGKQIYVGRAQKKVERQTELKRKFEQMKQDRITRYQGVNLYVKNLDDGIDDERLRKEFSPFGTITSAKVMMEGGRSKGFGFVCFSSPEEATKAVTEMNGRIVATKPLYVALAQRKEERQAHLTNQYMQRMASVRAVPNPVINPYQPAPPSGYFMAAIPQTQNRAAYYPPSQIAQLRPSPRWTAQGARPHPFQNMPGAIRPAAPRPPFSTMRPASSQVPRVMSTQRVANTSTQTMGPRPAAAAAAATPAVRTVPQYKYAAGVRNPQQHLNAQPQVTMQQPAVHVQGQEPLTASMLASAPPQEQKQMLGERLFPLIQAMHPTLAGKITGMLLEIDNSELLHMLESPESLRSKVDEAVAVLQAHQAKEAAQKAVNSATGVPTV
eIF4H FP inh: inhibitors of RNA binding by human eIF4H; Q15056; eIF4H fluorescence polarization binding assay; inhibition, % at 35 µM; 0.94% of 290,000 active; AID 2012;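 active = 50% or more with normal probe brightness, or confirmed in later tests; inconclusive = above 50% with abnormal brightness, or retests that disagree; inactive = below 50% or failed in later tests; about a fifth of its hits are not listed in these tables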;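 also: calls also rest on retests at 20 µM and on dose response follow-up; 0% = protein and probe with vehicle and 100% = probe without protein; strong numbers were not always called active; many hits fall short of the cut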
Rce1 inhib: blocks yeast Ras-converting enzyme. 0.27% of 290,000 active. yeast membranes, quenched prenylated peptide cleavage fluorescence. Q03530. calls only;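 active = fall in fluorescence gain of 50% or more versus controls, with final raw signal at or below 3038400; inconclusive = same 50% fall but final raw signal above 3038400; inactive = fall in fluorescence gain under 50%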;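 also: plate controls were neutral control wells for no effect and wells lacking membranes for full effect; tested at 10 µM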
CSC inhib: cancer stem cell inhibition. cancer stem cell-like cells viability, luminescence. inhibition, % at 7.5 µM. 1.1% of 300,000 active;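 active = mean at 75% or more and at least half the replicates too; inconclusive = mean and replicates disagree; tested in HMLE shEcad cells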;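 also: 0% = median of negative and 100% = median of positive control wells; the first replicate is given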
eIF4H FP inh retest: further read-out of eIF4H FP inh, marked with its call; inhibition, %; compound at 20 µM; confirmation average;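 mean of two retest wells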
PABP FP inh retest: recorded beside PABP FP inh, whose call it bears; inhibition, %; compound at 20 µM; confirmation repeats;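 mean of two retest wells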
MT1-MMP act inh RFP: recorded beside MT1-MMP act inh, whose call it bears; RFP signal change, %; measured here: RFP expression control read;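 0 = vehicle wells; hits needed this value within 50% of zero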
The depositor's hits bear a star; i = inactive; ? = inconclusive; · = no result given; & = joins results of further samples.

SMILES | Env fusion inh | Yeast UUG start | MT1-MMP act inh | MT1-MMP act inh RFP | PABP FP inh | eIF4H FP inh | Rce1 inhib | CSC inhib | others
CC(/C=C/c1ccc2c(c1)OCO2)=N/NC(=O)CNc1ccc(C)cc1 | 8.3 | -7.6 | 3.5 | 3.2 | · | · | i | 8.2
COc1ccc(C)cc1NC(=O)CCNS(=O)(=O)c1cccc2nonc12 | -0.1 | -4.0 | -0.7 | 2.8 | 1.0 | -2.3 | i | 5.5
CCC(C)n1c(SC(C)C#N)nc2ccccc2c1=O (stereo unspecified) | · | -11.2 | -2.3 | 2.2 | 7.2 | -5.8 | i | -3.4
O=C(O)CCC(C(=O)O)n1c(O)c(C2=c3ccccc3=NC2=O)sc1=S (stereo unspecified) | -18.5 | 24.3 | -13.9 | -2.5 | 24.7 | -2.8 | i | 4.3
CC1Cc2nc(SCC(=O)NCC3CCCO3)n(-c3ccc(F)cc3)c(=O)c2S1 (stereo unspecified) | -5.3 | -24.0 | 4.5 | 5.8 | -2.0 | -5.7 | i | -10.0
CCCOc1ccccc1C(=O)NC(CO)C(=O)O (stereo unspecified) | -49.1 | -19.0 | 0.8 | -0.3 | 0.2 | -0.8 | i | -3.9
c1ccc(OCCSc2nc3ccccc3[nH]2)cc1 | · | · | -0.1 | -4.7 | 6.2 | 11.2 | i | -16.4
O=C(NC1CCCc2ccccc21)C1CCN(c2nnc(-n3cccc3)s2)CC1 (stereo unspecified) | 10.7 | -14.3 | -5.8 | -9.3 | -4.4 | 18.6 | i | 9.0
CCOC(=O)Cc1csc(N/N=C/c2ccccc2)n1 | 5.3 | · | 1.1 | 2.3 | 5.5 | 5.6 | i | -14.0
COc1ccc(N2CCN(C3CCCN(C(=O)C4=C(C)OCCO4)C3)CC2)cc1 (stereo unspecified) | -9.9 | -4.9 | -2.0 | -2.0 | -3.0 | -4.7 | i | ·
CC(C)CNC(=S)NNC(=O)c1nn(C)cc1Cl | -60.0 | · | -0.4 | 1.7 | 2.0 | 3.2 | i | -3.0
O=C(NCc1ccccc1)C(c1c(F)cccc1Cl)N(C(=O)c1csnn1)C1CC1 (stereo unspecified) | 10.2 | -3.6 | -6.0 | -3.8 | -11.8 | -3.5 | · | -9.6
O=C(C1COc2ccccc2O1)N1CCOCC1 (stereo unspecified) | · | · | 0.3 | 5.0 | 6.4 | -0.3 | i | -4.0
OC(c1cc(C(F)(F)F)nc2c(C(F)(F)F)cccc12)C1CCCCN1 (stereo unspecified) | -6.7 | -23.0 | -9.9 | -7.3 | · | · | · | 72.1
Cc1ccc(S(=O)(=O)CCC(=O)Nc2nccs2)cc1 | · | · | -0.1 | -1.5 | -10.3 | -9.2 | · | 3.9

In the list so far, 3 contain an aryl thioether with sulfur outside any ring.
SMILES | Env fusion inh | Yeast UUG start | MT1-MMP act inh | MT1-MMP act inh RFP | PABP FP inh | eIF4H FP inh | Rce1 inhib | CSC inhib | others
CCC(C)n1c(SC(C)C#N)nc2ccccc2c1=O (stereo unspecified) | · | -11.2 | -2.3 | 2.2 | 7.2 | -5.8 | i | -3.4
CC1Cc2nc(SCC(=O)NCC3CCCO3)n(-c3ccc(F)cc3)c(=O)c2S1 (stereo unspecified) | -5.3 | -24.0 | 4.5 | 5.8 | -2.0 | -5.7 | i | -10.0
c1ccc(OCCSc2nc3ccccc3[nH]2)cc1 | · | · | -0.1 | -4.7 | 6.2 | 11.2 | i | -16.4

Following part
SMILES | Env fusion inh | Yeast UUG start | MT1-MMP act inh | MT1-MMP act inh RFP | PABP FP inh | eIF4H FP inh | Rce1 inhib | CSC inhib | others
CC(C)NC(=O)NC(=O)CSc1ccc(S(=O)(=O)N2CCOCC2)cn1 | -2.3 | -12.3 | 4.9 | 3.3 | · | · | · | ·
Cc1sc2ncn(CC(=O)Nc3cccc(S(N)(=O)=O)c3)c(=O)c2c1-c1ccccc1 | -14.8 | 7.5 | -0.7 | -3.6 | 2.4 | -3.9 | i | ·
CC(=O)c1ccc(NC(=O)c2ccc3nc(-c4ccco4)c(-c4ccco4)nc3c2)cc1 | · | -6.9 | 4.1 | -5.8 | 83.9* | 103.4* | i | 0.6
CCn1cc(C(=O)OCc2ccc(F)cc2)c(=O)c2ccc(C)nc21 | -11.0 | -13.4 | 2.7 | 0.5 | 8.2 | 0.3 | i | 1.7
COCCNC(=O)Cn1nc(-c2ccccc2OC)ccc1=O | -64.7 | · | 2.3 | -0.4 | 1.4 | -7.1 | i | -11.5
O=C(Nc1nnc(SCc2ccccn2)s1)C1CC(=O)N(c2ccccc2)C1 (stereo unspecified) | -38.9 | -14.5 | 0.0 | 2.1 | -15.9 | 4.8 | i | -2.9
CNc1nc(-c2ccccc2)cc(C)c1S(C)(=O)=O | ? | · | -7.5 | -3.5 | -0.9 | -5.8 | i | 8.1
COc1ccc(C(=O)Nc2ccc(NC(C)=O)cc2)cc1S(=O)(=O)N(C)Cc1ccccc1 | -26.7 | · | 1.7 | -2.3 | · | · | · | 1.0
CC(C)(C)c1ccc(C(=O)NCc2nnc(SCC(=O)N3CCCC3)o2)cc1 | -6.5 | -16.0 | 1.5 | 2.3 | · | · | · | ·
COc1cc(OC)cc(C(=O)N[C@H](C(=O)OCC(N)=O)C(C)C)c1 | · | · | 10.4 | 1.6 | -6.0 | -3.5 | i | -9.7
COc1ccc(C(=O)Nc2cccc3c2C(=O)NC3=O)cc1S(=O)(=O)N1CCOCC1 | -102.0 | -8.2 | 0.8 | 0.8 | 2.5 | -7.5 | i | -6.0
CCN(CC)CCOC(=O)c1ccc(NC(=O)C2(c3ccccc3)CCCC2)cc1 | · | -10.1 | -5.6 | -8.5 | 4.8 | -11.3 | i | ·
CCCN(C(=O)c1ccc(OCC(C)C)cc1)c1c(N)n(Cc2ccccc2)c(=O)[nH]c1=O | 2.3 | · | 0.3 | 0.0 | · | · | i | -3.2
COC(=O)CCCC1=CC2=CC(=O)C(C)(OC(=O)c3cccs3)C(=O)C2=CN1c1ccc(OC)cc1 (stereo unspecified) | -30.7 | -25.3 | 8.5 | 8.4 | 33.8* | 59.0 | i | -1.6 | eIF4H FP inh retest=33.3;PABP FP inh retest=61.8*
COc1ccc(CN(C)CC(=O)NC(=O)Nc2ccccc2F)cc1 | 7.8 | -9.4 | -0.6 | 0.4 | · | · | · | ·
Cc1ccc(C)c(OCC(=O)NCC(c2ccco2)N2CCCCC2)c1 (stereo unspecified) | -6.5 | · | -2.3 | -2.6 | · | · | i | 0.6
CCN(CC)CCN1C(=O)Cn2c(C)c(C)c3cccc1c32 | -12.2 | 2.7 | -1.5&6.1 | -0.8&-0.6 | -14.7&1.5 | 1.1&3.7 | i | 38.7&12.7
O=C(C1CCCO1)N(c1ccc(F)cc1)C1C=CS(=O)(=O)C1 (stereo unspecified) | -1.9 | · | -2.2 | 2.0 | 2.8 | 4.6 | i | ·
CCOc1ccc(C2=Nn3c(nnc3-c3ccccn3)SC2)cc1 | -4.7 | -30.4 | 3.6 | 1.6 | 2.0 | -8.1 | i | -3.2
CCn1c(SCC(=O)NCc2cccs2)nc2c1c(=O)n(C)c(=O)n2C | -17.4 | -18.0 | 2.5 | 0.9 | -18.0 | -6.6 | i | -6.5
COc1cccc(CNC(=O)c2cccc(NC3=NC4CS(=O)(=O)CC4S3)c2)c1 (stereo unspecified) | 2.2 | -16.1 | -1.9 | 4.4 | -13.1 | -20.0 | i | -5.6
CSc1cccc(NC(=O)CSc2nc3ccccc3o2)c1 | · | -11.9 | -2.4 | -4.4 | 0.6 | -2.7 | i | 1.1
N=C1C(c2ccccc2)=C(O)CN1CCCO | -3.7 | -6.8 | 1.7 | -1.8 | 15.7 | -7.6 | i | -0.1
COc1cc(NC(=O)c2sc3nc(C)nc(N4CCOCC4)c3c2C)cc(OC)c1OC | -3.5 | 15.3 | 4.9 | -0.8 | -0.7 | -12.7 | i | -0.2
COc1ccc(CCNC(=O)C(NS(=O)(=O)c2ccc3c(c2)CCN3C(C)=O)C(C)C)cc1OC (stereo unspecified) | · | · | · | · | -6.3 | 12.5 | i | -11.9
COC(=O)C[C@H](NC(=O)Cn1cnc2c(NCc3ccccc3)ncnc21)C(=O)OC | 11.9 | -9.1 | 5.2 | 5.4 | · | · | · | ·
O=C(NCCN1CCCCC1)c1cccc2c1C(=O)c1ccc(N3CCCC3)cc1S2(=O)=O | -28.8 | 3.8 | -92.2 | 7.9 | · | · | · | ·
O=C(NCC1CCCO1)C1CC(=O)N(c2cccc(Cl)c2)C1 (stereo unspecified) | -26.9 | -1.3 | 0.0 | 1.7 | -2.4 | -9.4 | i | -11.0
OC(COCc1ccc(Cl)cc1)CN1CCN(c2ccccn2)CC1 (stereo unspecified) | -8.6 | · | 1.0 | 0.8 | -6.7 | -0.3 | i | 4.1
O=C(CCc1nc(-c2ccc(Cl)cc2)no1)NC1CCCCC1 | 1.5 | 13.7 | 2.2 | -4.2 | 4.0 | 4.3 | i | -2.5
COc1cc2nc(NCC3CCCO3)n3nc(-c4cccnc4)nc3c2cc1OC (stereo unspecified) | -10.2 | -9.0 | 19.6 | 0.2 | -2.2 | -2.0 | · | ·
CC(C)COP(=O)(OCC(C)C)C(Nc1ccccc1)c1ccc2c(c1)OCO2 (stereo unspecified) | · | · | -20.3 | -17.8 | -3.2 | -11.3 | i | -1.7
CC(C)C[C@@]12C(=O)N(c3cccc(Cl)c3)C(=O)N1[C@H](c1ccc(Cl)cc1)[C@@H]1C(=O)N(C3CCCCC3)C(=O)[C@@H]12 | 67.4* | -11.3 | -5.7 | -4.5 | · | · | i | 4.6
O=C1/C(=C/c2cccnc2)Oc2cc(OS(=O)(=O)c3ccccc3)ccc21 | · | -12.2 | -1.9 | -4.6 | -8.0 | -10.5 | i | 7.8
O=c1nc(/C=C/c2ccc(O)c(O)c2)oc2ccccc12 | · | -21.0 | -10.9 | -10.7 | 10.1 | -5.7 | i | ·
COC(=O)c1ccc(S(=O)(=O)NCc2ccccn2)n1C | -40.4 | · | -1.6 | 1.6 | -6.1 | -11.7 | i | -2.6
COc1ccc(NC(=O)CSc2ncc(-c3ccc(F)cc3)n2Cc2ccco2)cc1 | -84.4 | -21.2 | 1.0 | -6.1 | -4.6 | -17.0 | i | ·
Cc1cc(C(=O)OCC(=O)c2ccc(Cl)c([N+](=O)[O-])c2)c2cccc(C)c2n1 | -0.5 | · | -3.0 | 2.7 | 5.3 | 14.4 | i | -17.7
Cc1cc(Cl)ccc1OCC(=O)NNC(=O)c1cccs1 | -11.6 | -0.1 | -3.8 | -4.7 | 4.3 | 9.7 | i | 8.7
CN(c1ccccc1)S(=O)(=O)c1ccc2ccccc2c1 | -4.9 | -16.1 | -2.9 | -7.1 | -7.9 | -6.2 | i | 11.9
NC(=O)C1CCN(S(=O)(=O)c2cccc(S(=O)(=O)N3CCCCC3)c2)CC1 | · | 9.1 | 5.2 | 1.9 | 7.4 | -8.3 | i | -3.2
CCOc1ccc2c(c1)-c1c(ssc1=S)C(C)(C)N2C(=O)c1ccco1 | 71.5* | -22.5 | -6.4 | -18.1 | 5.4 | 7.9 | i | 85.1*
CCOC(=O)c1ccc2[nH]c3ccccc3c2c1 | · | -14.9 | 1.5 | 0.3 | 76.1 | -2.4 | i | -14.5 | eIF4H FP inh retest=42.8;PABP FP inh retest=46.1
COc1ccc(NC(=O)c2cc(CN3C(=O)c4ccccc4C3=O)ccc2OC)cn1 | -180.2 | 6.5 | -8.4 | -4.7 | 4.5 | 12.0 | i | 23.3
